# Screening results as filed in PubChem.
# eIF4H FP inh: inhibitors of RNA binding by human eIF4H. actives 0.94% (n = 290,000). inhibition, % at 35 µM. AID 2012. eIF4H fluorescence polarization binding assay. Q15056;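 active = 50% or more with normal probe brightness, or confirmed in later tests; inconclusive = above 50% with abnormal brightness, or retests that disagree; inactive = below 50% or failed in later tests; about a fifth of its hits are not listed in these tables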;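 note: calls also rest on retests at 20 µM and on dose response follow-up; 0% = protein and probe with vehicle and 100% = probe without protein; strong numbers were not always called active; many hits fall short of the cut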
# Env fusion inh: inhibitors of HIV Env-mediated cell fusion. actives 1.1% (n = 360,000). inhibition, % at 12.3 µM. HeLa-JRFL Env/CEM21 cell fusion, luciferase;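 active = mean replicate inhibition score of at least 50 and every replicate individually at or above 50; inconclusive = only one of the two criteria met; inactive = mean below 50 and not all replicates reaching 50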;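 note: 0% = plate neutral controls and 100% = maraviroc near 300 nM; one replicate is shown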
# Rce1 inh: blocks yeast Ras-converting enzyme. Q03530. yeast membranes, quenched prenylated peptide cleavage fluorescence. calls only. actives 0.27% (n = 290,000). AID 2563;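 active = fall in fluorescence gain of 50% or more versus controls, with final raw signal at or below 3038400; inconclusive = same 50% fall but final raw signal above 3038400; inactive = fall in fluorescence gain under 50%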;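 note: plate controls were neutral control wells for no effect and wells lacking membranes for full effect; tested at 10 µM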
# Target sequence (Q03530 whole entry, looked up): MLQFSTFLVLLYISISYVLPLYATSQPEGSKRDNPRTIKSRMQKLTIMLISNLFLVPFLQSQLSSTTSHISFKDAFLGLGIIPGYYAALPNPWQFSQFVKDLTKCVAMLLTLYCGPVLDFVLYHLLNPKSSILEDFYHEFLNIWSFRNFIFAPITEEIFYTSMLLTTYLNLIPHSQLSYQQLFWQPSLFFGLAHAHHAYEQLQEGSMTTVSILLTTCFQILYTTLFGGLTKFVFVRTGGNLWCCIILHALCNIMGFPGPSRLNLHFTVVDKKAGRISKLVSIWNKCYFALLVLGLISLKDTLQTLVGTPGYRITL
# PABP FP inh: PABP-poly(A) binding inhibition | P11940 | PABP-poly(A) RNA binding, fluorescence polarization | inhibition, % at 35 µM | actives 1% (n = 290,000);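 active = 50% or more with normal probe brightness, or confirmed in later tests; inconclusive = above 50% with abnormal brightness, or retests that disagree; inactive = below 50% or failed in later tests; about a fifth of its hits are not listed in these tables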;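 note: calls also rest on retests at 20 µM and on dose response follow-up; controls were probe without protein and protein plus probe with vehicle; some compounds called inactive have numbers as strong as hits; many hits fall short of the cut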
# CSC inhib: cancer stem cell inhibition | inhibition, % at 7.5 µM | AID 2717 | cancer stem cell-like cells viability, luminescence | actives 1.1% (n = 300,000);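 active = mean at 75% or more and at least half the replicates too; inconclusive = mean and replicates disagree; tested in HMLE shEcad cells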;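 note: 0% = median of negative and 100% = median of positive control wells; the first replicate is given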
# UUG fidelity: yeast start codon fidelity modulation. S. cerevisiae UUG-firefly luciferase reporter, luminescence/redox ratio. activity score, % at 18.7 µM. actives 0.13% (n = 350,000). AID 602363;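 active = replicate mean at a twofold rise or more, about +100% in these data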;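 note: firefly luciferase made from a UUG start codon reports start codon fidelity; reporter light over untreated wells divided by growth signal over untreated wells; some hits fall short of that in this replicate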
# MT1-MMP act inh: inhibitors of human MT1-MMP activation | P50281 | HT1080 RFP-PRO-GFP cells, GFP/RFP ratio fluorescence, overnight; percent of plate control window, DMSO zero | GFP/RFP ratio change, % at 20 µM | actives 0.061% (n = 360,000) | AID 651647;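 active = GFP/RFP ratio change of at least 30% with cell ATP level not reduced by more than half and red fluorescence within 50% of control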; note: strong numbers were not always called active
#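 Assay system: HT1080 RFP-PRO-GFP cells. Benchmarks: DMSO vehicle wells and RFP-L50D-GFP reporter cell wells. Times: overnight cell settling, then overnight compound exposure, 37 °C, 5% CO2. Compound: 20 µM single dose, 1% DMSO. Read-out basis: GFP/RFP fluorescence ratio.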
# eIF4H FP inh retest: further read-out of eIF4H FP inh, marked with its call; inhibition, %; compound at 20 µM; confirmation average;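 mean of two retest wells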
# PABP FP inh retest: second read-out of PABP FP inh, no call of its own (marks repeat the call); inhibition, %; compound at 20 µM; confirmation repeats;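 mean of two retest wells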
# MT1-MMP act inh RFP: recorded beside MT1-MMP act inh, whose call it bears; RFP signal change, %; measured here: RFP expression control read;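 0 = vehicle wells; hits needed this value within 50% of zero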
# * = called active by the depositor; i = inactive; u = inconclusive; x = not tested or not shown.
# Start of the data: the first 2 records (preview)
SMILES,eIF4H FP inh,Env fusion inh,Rce1 inh,PABP FP inh,CSC inhib,UUG fidelity,MT1-MMP act inh,MT1-MMP act inh RFP,others
CCN(CC)S(=O)(=O)c1ccc(OC(C)C)nc1,-5.3,-28.7,i,-11.5,-7.8,-18.2,-1.2,-0.9,
O=S(=O)(c1ccc(Oc2ccc(S(=O)(=O)N(CCO)CCO)cc2)cc1)N(CCO)CCO,-16.9,13.8,i,-18.0,-11.8,x,2.0,6.2,

# Results, from the start:
SMILES,eIF4H FP inh,Env fusion inh,Rce1 inh,PABP FP inh,CSC inhib,UUG fidelity,MT1-MMP act inh,MT1-MMP act inh RFP,others
CCN(CC)S(=O)(=O)c1ccc(OC(C)C)nc1,-5.3,-28.7,i,-11.5,-7.8,-18.2,-1.2,-0.9,
O=S(=O)(c1ccc(Oc2ccc(S(=O)(=O)N(CCO)CCO)cc2)cc1)N(CCO)CCO,-16.9,13.8,i,-18.0,-11.8,x,2.0,6.2,
COc1ccc(CC(=O)NC(C)(C)CC(C)=O)cc1OC,-4.0,x,i,11.0,0.7,-13.2,0.0,-2.6,
COc1ccc(CC2(CO)CCN(Cc3cnc(-c4ccccc4C)nc3)CC2)cc1,-3.9,1.4,i,-3.9,x,-6.2,4.0,-12.4,
CCN(Cc1ccncc1)C(=O)c1cc(Br)cc(Br)c1O,1.5,17.7,i,-7.9,0.7,-5.4,3.0,1.5,
COCCCN(CCC#N)C(=O)c1c(-c2c(Cl)cccc2Cl)noc1C,-2.6,17.6,x,1.1,-5.8,-7.0,0.7,1.4,
CCOc1ccc(NC(=O)c2ccc(NCC(=O)N3CCCCCC3)cc2)cc1,-9.9,11.0,i,-5.7,-6.0,x,2.4,0.4,
COc1cc(C2Nc3ccc4ccccc4c3C3=C2C(=O)CC(C)(C)C3)ccc1OCC(=O)O (stereo not drawn),6.8,8.4,i,5.0,6.1,-3.6,-1.3,2.6,
O=C(Nc1nc2ccccc2s1)c1ccccc1[N+](=O)[O-],2.3,-39.4,i,-7.9,-2.2,-19.0,-2.9,-6.1,
CC(=O)N(CCc1ccccc1C)Cc1cc2cc(C)ccc2[nH]c1=O,3.9,-10.7,i,0.9,-1.0,-3.4,1.4,-3.1,
COc1ccc(CN(C)C(=O)COC(=O)c2cnc(Cl)c(Cl)c2)cc1,x,-5.2,x,x,7.7,-2.3,-2.2,-0.6,
Cn1c(Cl)c(/C=N/OC(=O)C2CC2)c2ccccc21,0.3,-1.4,i,24.4,-10.5,x,-6.0,-4.9,
CCN(CC)C(=O)C1=C(C)N(Cc2ccc(OC)cc2)C(=O)C(CC(=O)NCCc2ccccn2)C1 (stereo not drawn),x,11.8,x,x,x,-5.2,2.2,7.4,
CCCN1CCN(CC(=O)Nc2cc(OCC)ccc2OCC)CC1,9.1,15.9,i,17.7,-4.9,x,1.7,2.5,
COc1ccc(NC(=O)C2CCC(CNc3c(N4CCCCC4)c(=O)c3=O)CC2)c(OC)c1 (stereo not drawn),3.8,0.0,i,4.4,-6.5,-10.5,3.6,8.2,
Nc1c2c(nc3ccccc13)CCCC2=O,12.0,-21.5,i,-3.4,-9.1,x,-1.6,0.9,
COc1ccc(CCNC(=O)CCCCn2c(=O)[nH]c3ccccc3c2=O)cc1OC,-8.9,-0.1,i,-1.7,-13.0,x,6.5,7.3,
C=C(C)C(=O)Nc1cccc(C2=NOC3(C2)C[C@H](C(N)=O)N(C(=O)c2ccccc2C(=O)c2ccccc2)C3)c1 (stereo partly drawn),98.2*,-14.9,i,58.5*,-0.9,12.6,-2.3,-0.4,
CCc1c(C)c2c(C)[nH]nc2oc1=O,45.2,x,i,31.4,5.1,-10.3,1.0,3.8,
CC(C)c1ccc(S(=O)(=O)N2CCN(C(=S)NCc3ccco3)CC2)cc1,2.1,-25.7,i,-4.5,-3.9,-25.8,-4.0,-3.4,
O=S(=O)(Cc1ccc(Cl)cc1)Oc1ccc(Cl)cc1,x,-15.2,x,x,x,-7.4,1.7,-2.9,
COC(=O)c1ccc(-n2c(C)nc(=O)c(-c3ccccc3)c2C)cc1,-13.5,x,i,7.7,7.1,x,-2.0,4.6,
CC#CC(=O)N1CCC(C(=O)Nc2ccc(Oc3ccccc3)nc2)CC1,1.5,-26.4,i,-0.3,-13.3,-11.9,0.1,-5.5,
O=C(/C=C/[C@H]1O[C@@H](n2ccc(=O)[nH]c2=O)[C@H](O)[C@@H]1O)N1CCN(Cc2ccc(F)cc2)CC1,x,-4.2,x,x,x,-1.0,0.4,4.7,
CCn1c(-c2ccccc2SC)n[nH]c1=S,-7.0,-0.3,i,-2.7,-9.9,x,-3.3,-5.2,
CC(=O)c1ccc(N2CCN(c3ccnc4cc(Cl)ccc34)CC2)cc1,2.6,-27.7,i,8.7,-9.5,-19.0,-10.2,-15.6,
CCC(C)C(=O)Nc1nc(C)c(-c2csc(Nc3ccccc3OC)n2)s1 (stereo not drawn),-4.3,19.9,i,-11.2,52.5,-0.9,2.2,-3.9,
CCSc1nc2cc(OC)c(OC)cc2c(=O)n1CC,5.7,x,i,6.4,-8.1,8.4,-1.6,-3.5,
Cc1c[n+](CC(=O)c2ccccc2)c(C)cn1,11.3,-4.9,i,2.8,-3.2,-8.3,-5.4,1.3,
Cc1ccc2c(C)c(C(=O)N3CCN(c4ccncc4)CC3)oc2c1C,-6.1,39.4,i,3.3,17.8,-12.6,-1.2,-6.5,
Cc1cccc(-n2c(=O)c(C#N)cc3c(=O)n4ccccc4nc32)c1,44.6,-87.1,i,28.7,-4.4,-2.8,-0.2,6.2,
CCOc1ccc(S(=O)(=O)N2CCC(C(=O)Nc3cc(S(C)(=O)=O)ccc3Cl)CC2)cc1,x,7.0,x,x,-14.5,-10.0,-3.0,-1.8,
CCc1ccc(C(=O)COC(=O)C2=NN(c3ccccc3)C(=O)CC2)cc1,x,x,x,x,-9.5,-10.4,2.1,5.2,
CCOc1ccccc1NC(=O)C1CCCN(c2c(CC)c(C)nc3ncnn23)C1 (stereo not drawn),1.8,2.0,i,2.5,-13.2,-20.7,1.9,-5.1,
Cc1cccc(OCCNC(=S)NC(=O)c2cncc(Br)c2)c1,10.5,-5.3,i,7.6,-9.6,-12.4,-0.7,1.3,
Cn1nccc1-c1ccc(C(=O)NCc2ccco2)c2occc12,x,-1.7,x,x,x,-27.9,-2.3,-3.9,
C=CCN1C(=O)N/C(=C/c2ccc(N3CCOCC3)o2)C1=O,2.9,-5.6,i,-3.0,15.4,x,x,x,
COc1cc2c(cc1OC)C(=O)NCC(C)(C)O2,5.5,-20.0,i,-5.0,x,-3.6,2.4,6.3,
Cc1nn(Cc2cccc(C(=O)Nc3ccn(Cc4c(F)c(F)cc(F)c4F)n3)c2)c(C)c1[N+](=O)[O-],-7.5,56.3*,i,2.3,x,-4.9,2.4,-13.4,
O=C(Cn1cc2c(n1)CCCCC2)NC1CCN(Cc2ccccc2)CC1,-7.1,20.4,i,0.5,17.0,-19.0,3.9,-2.1,
Cc1ccccc1Nc1nnc(SCC(=O)NC(=O)NCc2ccco2)s1,59.1*,-6.8,i,8.0,-2.4,-25.0,-3.7,0.4,eIF4H FP inh retest=88.8*;PABP FP inh retest=43.7
CCOC(=O)N1CCC(NC(=O)c2ccc3c(c2)N(CC)CCS3)CC1,x,-106.5,i,x,-5.3,-8.5,-7.4,-2.0,
COc1ccccc1C1C(C(N)=O)=C(C)Nc2nc(-c3ccccc3Cl)nn21 (stereo not drawn),8.8,13.3,i,9.5,-7.5,-17.7,1.7,7.0,
CC(=O)c1cc2c(cc1NS(=O)(=O)c1ccc(C)cc1)OCCO2,-5.6,x,i,7.4,x,-0.4,0.0,-3.5,
CCN(CC)CCOC(=O)c1ccc(NC(=O)CNC(=O)c2ccccc2)cc1,-1.2,-2.1,i,-8.0,-7.7,x,-0.7,2.0,
Cc1cc(=O)oc(C)c1C(=O)N1CCN(C)CC1,-2.1,x,i,4.5,x,-14.3,3.7,4.5,
O=C(C[n+]1ccc(C(=O)N/N=C/c2ccc(O)cc2)cc1)c1ccccc1,11.4,-41.2,i,-6.8,-8.9,-19.0,-0.1,-0.4,
COc1ccc(N2CCN(S(=O)(=O)c3ccc4oc(=O)ccc4c3)CC2)cc1,-0.3,8.1,i,2.7,-4.1,-12.8,-1.0,0.6,
Clc1ccc(-c2csc(N3CCCCCC3)n2)cc1,-7.9,-18.5,i,-4.1,14.2,-21.2,0.9,-2.1,
c1ccc(CCNc2nc(-c3cccnc3)cs2)cc1,13.4,x,i,9.7,-22.8,-19.1,1.9,2.4,
O=C(Nc1nnc(C2CC2)s1)c1cc2ccccc2o1,x,-38.1,x,x,x,-16.5,-1.5,1.7,
COc1ccc(N(C)S(=O)(=O)c2ccc(Cl)c(C(=O)NNC(=O)c3ccccc3O)c2)cc1,x,2.3,x,x,x,-11.8,7.0,1.8,
O=C(Nc1ccncc1)C1CC(=O)N(c2ccccc2)C1 (stereo not drawn),x,3.7,x,x,x,-18.8,0.3,-9.0,
O=C(CCN1C(=O)S/C(=C\c2ccccc2)C1=O)Nc1ccc(O)cc1C(=O)O,9.5,-6.0,i,17.2,0.7,-2.6,0.6,4.5,
O=C(NCC1OCCCN1S(=O)(=O)c1cc(F)ccc1F)C(=O)NC1CCCCC1 (stereo not drawn),-7.1,-11.4,i,u,9.4,x,1.2,0.8,
c1coc(CNC2CCCCC2)c1,7.7,x,i,18.6,-9.9,-17.9,2.5,5.7,
CSc1ccc(CN2CCC2(C)C(=O)Nc2cccc(NS(C)(=O)=O)c2)cc1 (stereo not drawn),x,75.7*,x,x,x,-12.0,-3.3,-8.6,
COC(=O)c1ccc(N2NC(=O)/C(=C/c3ccc(-c4ccc(Cl)c(C(=O)O)c4)o3)C2=O)cc1,71.2*,-8.3,i,63.1*,x,x,-13.9,-3.1,eIF4H FP inh retest=72.7*;PABP FP inh retest=74.2*
O=C(CSc1nc2ccsc2c(=O)n1NC(=O)c1ccccc1)Nc1nccs1,-2.2,-72.2,i,-2.9,10.2,2.8,-6.1,-1.6,
Cc1onc(-c2ccccc2Cl)c1C(=O)Nc1nnc(Cc2ccc(Cl)cc2)s1,3.4,x,i,3.9,19.3,-12.1,1.9,-3.2,

# Next part:
SMILES,eIF4H FP inh,Env fusion inh,Rce1 inh,PABP FP inh,CSC inhib,UUG fidelity,MT1-MMP act inh,MT1-MMP act inh RFP,others
CC1CN(c2ccc(S(=O)(=O)N3CCOCC3)cn2)CC(C)O1 (stereo not drawn),-9.4,x,i,5.6,0.1,x,1.0,2.2,
COc1ccccc1N(CC(=O)NC(C)(C)C)C(=O)Cn1nnc(-c2ccc(C)o2)n1,-6.5,10.3,i,-3.8,-10.3,9.5,-1.6,-0.2,
CC/C(=N\Nc1ccnc2cc(Cl)ccc12)c1ccc(O)cc1,-0.5,-15.5,i,4.5,48.6,-10.0,0.5,2.7,
COc1ccc(C2CC(c3ccccc3O)=NN2c2ccccc2)cc1 (stereo not drawn),x,13.0,i,x,3.0,x,5.9,-4.6,
CC(C)c1c(C(=O)N/N=C/c2ccco2)nnn1-c1nonc1N,-3.9,-9.3,i,8.0,-16.3,-7.5,4.7,4.8,
COc1c(N2CCN(C(=S)NCc3ccccc3)C(C)C2)c(F)cc2c(=O)c(C(=O)O)cn(C3CC3)c12 (stereo not drawn),9.7,x,i,10.9,x,-7.6,-8.0,-12.9,
O=C(CCCN=C1NS(=O)(=O)c2ccccc21)OCc1cc([N+](=O)[O-])cc2c1OCOC2,4.5,1.2,i,16.8,-0.4,x,-1.7,-1.6,

# This is a subset; count on the stated rates, not on these rows.
